TRPML1 inh – qHTS for Inhibitors of the Human Mucolipin Transient Receptor Potential 1 (TRPML1); activity change, negative = inhibition, % (concentration not given with the values); Mucolipin-1 (Homo sapiens), Q9GZU1; AID 624415, 2012; TRPML1-inducible cells, Ca2+ dye fluorescence, FDSS; stronger effect = lower value; inhibition of EC80 agonist-evoked calcium signal; 390,000 tested, 0.02% active; in the data active means activity change below about -50%; inconclusive means about -30% to -50%; inactive means above about -30%;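 further: stimulus is agonist 54-4 at its EC80 concentration; on the % scale 0 is the no-effect control and ±100 the full control effect; compound concentration not given in the record; the text of the record puts the active cut at -80%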
Target sequence (Q9GZU1 whole entry, looked up): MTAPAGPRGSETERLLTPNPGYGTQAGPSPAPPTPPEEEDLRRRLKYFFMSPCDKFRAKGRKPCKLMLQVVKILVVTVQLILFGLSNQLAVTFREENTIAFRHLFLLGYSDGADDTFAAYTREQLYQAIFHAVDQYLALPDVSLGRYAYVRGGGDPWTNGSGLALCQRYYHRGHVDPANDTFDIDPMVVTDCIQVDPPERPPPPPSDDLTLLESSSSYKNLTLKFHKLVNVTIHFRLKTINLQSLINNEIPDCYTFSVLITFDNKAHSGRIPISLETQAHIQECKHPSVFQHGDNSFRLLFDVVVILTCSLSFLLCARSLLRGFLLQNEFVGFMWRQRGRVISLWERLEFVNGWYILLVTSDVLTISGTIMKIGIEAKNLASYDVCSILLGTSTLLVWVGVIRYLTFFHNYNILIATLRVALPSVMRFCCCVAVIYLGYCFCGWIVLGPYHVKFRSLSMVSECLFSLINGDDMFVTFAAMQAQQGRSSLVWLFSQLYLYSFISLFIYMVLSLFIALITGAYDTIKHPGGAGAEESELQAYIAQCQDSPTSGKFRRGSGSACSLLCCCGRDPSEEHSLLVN
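Tet-induced TRPML1-DL cells loaded with Ca8 no-wash calcium dye were read kinetically on FDSS. Compound addition was followed by EC80 agonist 54-4 (4 uM final); inhibition was read over 110 s.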
ClpP mod – qHTS Assay for Activators of ClpP | ATP-dependent Clp protease proteolytic subunit (Bacillus subtilis (strain 168)), P80244 | purified B. subtilis ClpP, FRET peptide cleavage, 20 min | Potency, µM (series often up to 57.5 µM), for inactives: top-dose activity change, negative = active | 340,000 tested, 1.9% active | AID 651965, 2013; active = well fitted falling curve with a large enough effect; inconclusive = small, poorly fitted or top-dose-only effect; inactive = no such curve, though single readings can be large or run the other way; further: potency means the concentration at half of the fitted maximal effect; the source files actives as falling curves though it sought activators and does not explain the sign; nearly all actives have a fitted effect of over 65% in size; many hits overshoot -100%
Target sequence (P80244 whole entry, looked up): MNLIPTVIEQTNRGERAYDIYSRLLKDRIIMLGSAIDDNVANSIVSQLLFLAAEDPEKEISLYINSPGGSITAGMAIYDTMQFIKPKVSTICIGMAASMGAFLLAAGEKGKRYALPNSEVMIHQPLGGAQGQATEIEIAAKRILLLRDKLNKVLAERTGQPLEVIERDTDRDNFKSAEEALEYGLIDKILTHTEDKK
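ClpP 10 microg/mL final, pH 8 Tris/KCl buffer with BSA, glycerol, Tween-20; compound pinned in; FRET-FV substrate; RT 20 min; Ex320/Em430; ΔFRET vs ADEP 5.8 microM, DMSO, no enzyme.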
TRPML1 ag – qHTS for Agonists of the Human Mucolipin Transient Receptor Potential 1 (TRPML1). Mucolipin-1 (Homo sapiens), Q9GZU1. TRPML1-expressing cells, Ca2+ dye fluorescence, FDSS; host cell line not named in the record; reference of the full effect not given here. activation, % (no concentration beside the values). 410,000 tested, 0.12% active. AID 624414, 2012; in the data active = activation above about 50%; inconclusive = about 30% to 50%; inactive = below about 30%; further: 0% is about no effect; the text of the record puts the active cut at 80%
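TRPML1-DL cells, Tet-induced overnight (~16 h, 37 degrees C), loaded 45-90 min at room temperature with Ca8 no-wash calcium dye plus quencher. FDSS fluorescence: 10 s baseline, compound pin-transfer, 110 s agonist read, then EC80 54-4 (4uM final) and 110 s antagonist read.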
gsp antag – qHTS for Antagonists of gsp, the Etiologic Mutation Responsible for Fibrous Dysplasia/McCune-Albright Syndrome: qHTS; gsp-mutant cells, cAMP HTRF, 30 min; control for the full effect not named in the record; Potency, µM (series often up to 76.9 µM), inactives show at the highest dose activity change, negative = inhibition, usual class: inhibitors; AID 624288, 2012; 340,000 tested, 0.4% active; active = falling curve of any shape with a large fitted effect; inconclusive = falling curve, mostly with a smaller effect; inactive = flat or rising curve; cell line not stated here;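 further: intracellular cAMP measured with PDE inhibitor Ro 20-1724 present during compound exposure; potency means the concentration at half of the fitted maximal effect; on the % scale 0 is the no-effect control and ±100 the full control effect; nearly all actives have a fitted effect of over 65% in size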
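Cells, 2000/well, grown 16–24 h in DMEM 10% FBS with 0.5 mg/ml G418, then compounds plus […] (300 uM addition stock), 30 min at 37C. cAMP read by HTRF (cAMP-d2 and anti-cAMP antibody-K in lysis buffer) after 30 min RT.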
gsp agonist – qHTS for Agonist of gsp, the Etiologic Mutation Responsible for Fibrous Dysplasia/McCune-Albright Syndrome: qHTS | gsp mutant cells, cAMP HTRF, 30 min; control for the full effect not named in the record | 340,000 tested, 0.13% active | Potency, µM (top dose mostly 76.9 µM), for inactives: at the highest dose activation (cAMP increase), most hits filed as activators; active = well fitted activation curve with a large enough effect; inconclusive = small, poorly fitted or top-dose-only effect, or another doubt; inactive = no such curve, though single readings can be large or run the other way; cell line not stated here;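 further: phosphodiesterase inhibitor Ro 20-1724 added with compounds to block cAMP breakdown; potency means the concentration at half of the fitted maximal effect; nearly all actives have a fitted effect of over 60% in size; about a fifth of the inactives were tested at one dose only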
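Cells in DMEM/10% FBS with G418 were pretreated with compounds in DMSO plus […] (300 uM stock) for 30 min at 37C. cAMP was measured by HTRF (cAMP-d2 plus anti-cAMP antibody-K) after 30 min at room temperature.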
Menin-MLL FL inh – qHTS Assay for Inhibitors Targeting the Menin-MLL Interaction in MLL Related Leukemias: Competition With Fluorescein Labeled MLL-derived Peptide; Fluorescence polarization, fluorescein-MLL peptide displacement from menin; FP activity change, % at 61.4 µM; 290,000 tested, under 10 active; AID 1766, 2009; inconclusive = falling polarisation curve, or a change in total fluorescence; inactive = total fluorescence flat and polarisation flat or rising; no compound was filed as active; the % refers to the polarisation; negative = inhibition;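 further: % of control where 0% means no effect; inhibitors lower the polarisation; unlabelled MLL peptide was the positive control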
The depositor's hits bear a star; u = inconclusive; x = no result given; [ ] = dose if it differs, or a comment.

SMILES | TRPML1 inh | ClpP mod | TRPML1 ag | gsp antag | gsp agonist | Menin-MLL FL inh
CC(=O)OC1OCCOC1NC(=S)Nc1ccc(C)cc1 (configuration not stated) | -0.1 | 2.0% | -0.3 | 6.1% | -31.9%[inhibitor] | -0.8
COc1ccc2c(c1)C(=O)CC(c1ccc3c(c1)OCCO3)O2 (configuration not stated) | 14.9 | -0.8% | -1.2 | -12.7% | -3.2%[15.4 µM] | -2.9
C=CCn1c(-c2ccc(F)cc2)n[nH]c1=S | -11.4 | 1.0% | -1.7 | -9.0% | -3.6%[15.4 µM] | -1.1
O=C(CCNC(=O)c1ccccc1)NNC(=O)c1ccc(F)cc1 | 24.6 | -1.0% | -0.7 | 14.2% | -30.0% | x
Cc1cccc2cc(C(c3nnnn3Cc3ccccc3)N3CCN(c4ccccc4)CC3)c(=O)[nH]c12 (configuration not stated) | 14.0 | -12.8% | 0.0 | -5.4% | -13.5% | 3.0
CC(OC(=O)CSc1ccc(F)cc1)C(=O)NC1(C#N)CCCCC1 (configuration not stated) | 23.3 | -2.5% | 0.5 | -24.2% | -0.9% | x
CCOc1ccc(C(c2c(C)[nH]n(-c3ccccc3)c2=O)c2c(C)[nH]n(-c3ccccc3)c2=O)cc1OC | -18.4 | -1.7% | 0.4 | x | x | x
N#CCc1ccc(Oc2ccc([N+](=O)[O-])cn2)cc1 | 7.7 | x | 2.3 | 2.0% | 12.4%[15.4 µM] | 1.6
CNc1ccc(C=C2C=Cc3ccccc32)cc1 | 13.2 | -0.3% | -0.2 | -10.6% | 17.8%[15.4 µM] | x
O=C(O)c1cc(-c2cccs2)nc2cc3c(cc12)OCCO3 | 5.7 | 4.2% | 1.0 | -7.7% | u | -1.3
Cc1ccc(S(=O)(=O)N2CCN(C(=O)Cn3c(=O)oc4ccccc43)CC2)cc1 | 1.6 | 0.6% | 0.7 | -12.5% | 7.4%[15.4 µM] | x
O=C(CCn1cccc1)Nc1cc(F)ccc1F | 20.5 | 1.0% | 0.3 | -7.1% | -0.1% | 1.2
N/C(=N\c1nc2ccccc2o1)NC(=O)c1ccccc1 | -5.5 | 0.1% | 1.0 | -13.7% | 15.9%[15.4 µM] | 1.5
COc1ccc(Oc2ccc3c(C(F)(F)F)cc(C(F)(F)F)nc3n2)cc1 | 7.0 | 0.0% | -0.4 | -22.2% | -45.4% | 0.2
CCc1cccc(NS(=O)(=O)c2csc(C(N)=O)c2)c1 | 14.4 | -0.5% | -1.2 | 9.6% | -8.4%[15.4 µM] | 9.6
CC(=O)c1cccc(N(C(=O)CNC(=O)c2ccco2)C(C(=O)NC2CCCC2)c2ccncc2)c1 (configuration not stated) | -4.7 | -2.4% | -0.7 | -5.8% | -11.0%[15.4 µM] | 2.0
CCOc1ccc(NC(=O)c2cc3c(n(-c4ccc(OC)cc4)c2=O)CC(C)(C)CC3=O)cc1 | 28.6 | -6.3% | -0.4 | x | x | x
CCCCCn1c(Sc2ncccn2)nc2c1c(=O)[nH]c(=O)n2C | 7.0 | -5.1% | 0.4 | -18.0% | -12.7% | 0.6
Cc1cc(C)n2nc(SCC(=O)N3CC(C)CC(C)C3)nc2n1 (configuration not stated) | 5.1 | -0.8% | 0.7 | 8.8% | 2.9%[15.4 µM] | x
O=C(Cn1nnc2ccccc21)C1CC1 | 30.7 | -0.3% | -0.1 | -2.4% | 15.6% | 4.7
Cn1c(CCN2CCCCC2)nc2cc(NS(=O)(=O)c3ccc(Cl)cc3)ccc21 | -25.0 | -1.0% | 0.0 | 11.4% | u | -3.6
O=C(C1=C[C@H](C2CC2)C[C@H](OCCCCO)O1)N1CCN(Cc2ccc3c(c2)OCO3)CC1 | 37.9 | -4.8% | 0.1 | -8.6% | x | 3.8
CCCc1cc(=O)oc2cc(OCC(=O)NC3CCN(Cc4ccccc4)CC3)ccc12 | -9.2 | -21.0% | 0.7 | -1.4% | -29.6% | x
Cc1ccc(S(=O)(=O)N2[C@@H](c3ccc(Br)cc3)C(C(=O)O)=C[C@H]2C(C)(C)C)cc1 | -8.3 | -1.2% | 0.8 | -10.7% | x | x
O=C(O)C(Oc1ccc2c3c(c(=O)oc2c1)CCC3)c1ccccc1 (configuration not stated) | 16.8 | 20.7% | -1.4 | -9.5% | 16.8% | 0.3
OC(CNCc1ccc(Cl)cc1)COc1ccccc1 (configuration not stated) | 29.5 | -1.6% | 0.8 | 13.9% | -1.4% | -4.9
CCOc1ccc(C(=O)Nc2cccc(C(=O)O)c2)cc1Cl | -1.4 | x | -0.1 | -7.7% | -25.4% | 3.0
CCCCCOC(=O)c1[nH]c2c(c1C)C(=O)C(C(=O)OC)C(C)C2 (configuration not stated) | -0.5 | 0.6% | 0.4 | -4.3% | -5.3% | -2.7
O=C(Nc1ccccc1-c1ccccc1)NC1CCN(CC(=O)N2CCOCC2)CC1 | 14.6 | -2.9% | 0.1 | 10.1% | 0.0% | -0.6
CCOc1ccc(S(=O)(=O)Nc2c(C)n(C)n(-c3ccccc3)c2=O)cc1 | -4.1 | x | -0.8 | 6.0% | -74.0%[inhibitor] | -2.1
COc1ccc(N(CC(=O)Nc2ccc(Cl)cc2C)S(=O)(=O)c2ccccc2)c(OC)c1 | 50.3 | 0.1% | 0.4 | x | x | x
CCOc1ccc(C(=O)NCC(=O)OCC(=O)Nc2nnc(-c3ccccc3)o2)cc1 | -7.3 | -6.1% | 0.5 | -6.8% | 5.2% | x
CC1CCN(c2ccc(C(=O)OCC(=O)NCCN3C(=O)CSC3=O)cc2[N+](=O)[O-])CC1 | 14.1 | -0.6% | -1.2 | -17.2% | -8.7%[15.4 µM] | 1.3
Cc1ccc(S(=O)(=O)NCC(=O)N2CCN(c3ccc(F)cc3)CC2)cc1 | -9.9 | -0.7% | -0.6 | 2.2% | -7.7% | x
COc1ccc(OC)c(C2C=C(c3ccc(C)c(C)c3)Nc3nnnn32)c1 (configuration not stated) | 42.0 | 1.3% | -1.5 | 20.6% | 4.6% | 3.3
CCOC(=O)Cc1csc(NC(NC(=O)OCC)(C(=O)OCC)C(F)(F)F)n1 (configuration not stated) | 1.6 | -3.3% | -0.4 | -1.8% | -1.2% | x
O=C(c1ccccn1)N1CCCC(N2CCN(Cc3ccc4c(c3)OCO4)CC2)C1 (configuration not stated) | 14.5 | -2.4% | 0.3 | 9.7% | -47.9%[inhibitor] | x
Cc1ccc(-n2nc3c(c2NC(=O)C(C)(C)C)CSC3)c(C)c1 | 7.1 | -1.0% | -0.7 | -9.8% | -7.6% | 0.3
CCCn1c2ccccc2c2cnn(CC(=O)Nc3cc(OC)c(OC)c(OC)c3)c(=O)c21 | 9.5 | -24.2% | 3.2 | x | x | x
O=C(NC1(C(F)(F)F)N=C2SCCN2C1=O)c1ccco1 (configuration not stated) | 1.7 | -0.9% | -0.5 | 15.5% | 16.8% | -1.3
COc1ccc(S(=O)(=O)N2CCCCC2)cc1NC(=O)CCCOc1ccccc1 | -3.8 | -4.6% | 0.8 | -6.4% | 3.2% | x
CN(Cc1ccncc1)C1CC(=O)N(c2ccc(F)cc2)C1=O (configuration not stated) | 22.8 | -4.2% | 0.2 | 14.2% | -14.0% | 4.2
Cc1ccc(-c2nc3ncccc3o2)cc1NC(=O)c1cccc(OCC(C)C)c1 | -4.7 | -9.1% | 0.9 | x | x | x
C[C@H]1CN([C@@H](C)CO)C(=O)CCCn2nncc2CO[C@@H]1CN(C)S(=O)(=O)c1cn(C)cn1 | -10.2 | 2.3% | -0.3 | x | -2.6% | x
COC(=O)/C(=N/Nc1ccccc1)N1CCCc2ccccc21 | 6.6 | u | 1.0 | u | -0.9% | -1.2
O=C(Nc1nnc(C2CC2)s1)C1CCCCC1 | 0.8 | 1.2% | 0.0 | 0.4% | -4.5% | x
O=S(=O)(c1cccc2nsnc12)N1CCN(C/C=C/c2ccccc2)CC1 | 2.1 | -1.5% | 2.3 | -5.8% | u | -1.8
Cc1ccc(S(=O)(=O)OCC(=O)Nc2ccc(C(=O)O)c(O)c2)cc1 | 6.1 | u | -0.4 | 4.1% | 15.2% | x
O=C(NC(=S)NNC(=O)[C@H]1C[C@@H]1c1ccccc1)c1ccc(F)cc1 | -7.8 | 0.3% | 22.9 | -5.4% | 3.7% | 2.8
CSc1cccc(-n2ccc(=O)c(C)c2C)c1 | 6.5 | x | -0.6 | 11.8% | -20.4%[15.4 µM] | -3.9
Further records:
SMILES | TRPML1 inh | ClpP mod | TRPML1 ag | gsp antag | gsp agonist | Menin-MLL FL inh
COc1ccc(-c2onc(C)c2C)cc1S(=O)(=O)N1CCN(c2cc(C)ccc2C)CC1 | 55.6 | -1.5% | 0.9 | x | x | x
O=C(NC(C(=O)N/N=C/c1cccc2ccccc12)c1n[nH]c(=O)c2ccccc12)c1ccccc1 (configuration not stated) | 23.8 | -12.8% | -0.3 | 4.9% | 22.8% | u
Fc1ccc(-n2c(-c3ccc4c(c3)OCO4)n[nH]c2=S)cc1Cl | -5.4 | -4.4% | 1.8 | 1.0% | u | 2.3
CC(Sc1nc2ccccc2s1)C(=O)N1CCOCC1 (configuration not stated) | -2.7 | -2.3% | 0.0 | -2.3% | -0.8% | 8.1
CCCCCCN1C[C@H](n2cc(-c3ccc(F)cc3)nn2)[C@@H](O)C[C@@H]1c1ccc(OC)cc1 | -4.3 | -4.1% | 0.8 | x | -36.8%[inhibitor] | x
Cc1nn(C)c(C)c1CCC(=O)O | 4.0 | x | 0.0 | 7.2% | 13.0%[15.4 µM] | 4.0

Screening data from PubChem BioAssay.
